High-throughput results from PubChem BioAssay.
Yeast UUG start: modulators of yeast start codon fidelity, primary screen, whole organism, S. cerevisiae, single point, plate reader | S. cerevisiae UUG-firefly luciferase reporter, luminescence/redox ratio | activity score, % at 18.7 µM | hit rate 0.13% among 350,000 | AID 602363, 2012;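 active means replicate mean at a twofold rise or more, about +100% in these data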;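 further: firefly luciferase made from a UUG start codon reports start codon fidelity; reporter light over untreated wells divided by growth signal over untreated wells; some hits fall short of that in this replicate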
CSC inhib: cancer stem cell viability inhibitors, primary screen, luminescence. cancer stem cell-like cells viability. hit rate 1.1% among 300,000. inhibition, % at 7.5 µM. AID 2717, 2010;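 active means mean at 75% or more and at least half the replicates too; tested in HMLE shEcad cells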;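 further: 0% = median of negative and 100% = median of positive control wells; the first replicate is given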
eIF4H FP inh: human eIF4H binding inhibitors, primary screen, translation initiation inhibitor project, biochemical, uHTS, fluorescence polarization | inhibition, % at 35 µM | Eukaryotic translation initiation factor 4H (Homo sapiens), Q15056 | hit rate 0.94% among 290,000 | AID 2012, 2009 | eIF4H fluorescence polarization binding assay;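 active means 50% or more with normal probe brightness, or confirmed in later tests; about a fifth of its hits are not listed in these tables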;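 further: calls also rest on retests at 20 µM and on dose response follow-up; 0% = protein and probe with vehicle and 100% = probe without protein; strong numbers were not always called active; many hits fall short of the cut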
PABP FP inh: PABP poly(A) RNA binding inhibitors, primary screen, biochemical, fluorescence polarization, uHTS; hit rate 1% among 290,000; inhibition, % at 35 µM;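 active means 50% or more with normal probe brightness, or confirmed in later tests; about a fifth of its hits are not listed in these tables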;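 further: calls also rest on retests at 20 µM and on dose response follow-up; controls were probe without protein and protein plus probe with vehicle; some compounds called inactive have numbers as strong as hits; many hits fall short of the cut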
Rce1 inh: yeast Rce1p protease inhibitors, primary screen, biochemical, fluorescence, cell-free homogeneous. yeast membranes, quenched prenylated peptide cleavage fluorescence. calls only. hit rate 0.27% among 290,000;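 active means fall in fluorescence gain of 50% or more versus controls, with final raw signal at or below 3038400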;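 further: plate controls were neutral control wells for no effect and wells lacking membranes for full effect; tested at 10 µM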
Target sequence (Q03530 whole entry, looked up): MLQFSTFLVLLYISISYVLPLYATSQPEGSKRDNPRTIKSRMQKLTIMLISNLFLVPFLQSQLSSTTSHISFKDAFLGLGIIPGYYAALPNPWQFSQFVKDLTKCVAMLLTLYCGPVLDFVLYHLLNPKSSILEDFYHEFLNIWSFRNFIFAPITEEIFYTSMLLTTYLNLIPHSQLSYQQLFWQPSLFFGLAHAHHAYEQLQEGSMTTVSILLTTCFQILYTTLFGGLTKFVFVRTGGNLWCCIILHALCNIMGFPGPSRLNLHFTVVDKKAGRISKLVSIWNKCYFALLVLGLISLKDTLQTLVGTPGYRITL
MT1-MMP act inh: blockers of MT1-MMP proenzyme processing, primary screen, HT1080 RFP-PRO-GFP cells, GFP/RFP fluorescence. Matrix metalloproteinase-14 (Homo sapiens), P50281. GFP/RFP ratio fluorescence, overnight; percent of plate control window, DMSO zero. GFP/RFP ratio change, % at 20 µM. hit rate 0.061% among 360,000;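 active means GFP/RFP ratio change of at least 30% with cell ATP level not reduced by more than half and red fluorescence within 50% of control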; further: strong numbers were not always called active
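Assay system: HT1080 cells carrying an RFP-PRO-GFP reporter | Dosing: Single dose of 20 µM compound, 1% DMSO final | Incubation: Cells overnight before dosing, compound overnight, 37 °C, 5% CO2 | Evaluation: GFP/RFP fluorescence ratio | Control set: DMSO and RFP-L50D-GFP cell wells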
HIV Env fusion: inhibitors of HIV-1 Env-driven cell-cell fusion, primary screen, HeLa-JRFL effector, CEM21 target cells, luciferase; inhibition, % at 12.3 µM; hit rate 1.1% among 360,000;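 active means mean replicate inhibition score of at least 50 and every replicate individually at or above 50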;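 further: 0% = plate neutral controls and 100% = maraviroc near 300 nM; one replicate is shown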
eIF4H FP inh retest: second read-out of eIF4H FP inh, no call of its own (marks repeat the call); inhibition, %; compound at 20 µM; confirmation average;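 mean of two retest wells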
PABP FP inh retest: recorded beside PABP FP inh, whose call it bears; inhibition, %; compound at 20 µM; confirmation repeats;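 mean of two retest wells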
MT1-MMP act inh RFP: further read-out of MT1-MMP act inh, marked with its call; RFP signal change, %; measured here: RFP expression control read;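 0 = vehicle wells; hits needed this value within 50% of zero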
Starred values were filed as active, the others as inactive.

Screening FC(F)(F)c1ccc(C2[C@H]3CN(Cc4ccc(-c5ccccc5)cc4)[C@H](c4ccccc4)C34CC2(c2cccnc2)C4)cc1 (stereo not given in full) returned CSC inhib 20, eIF4H FP inh -7, PABP FP inh -7, Rce1 inh inactive and HIV Env fusion -42.
O=C(c1cc2cc(Cl)ccc2oc1=O)N1CCCC1 was read as Yeast UUG start -1, CSC inhib -3, eIF4H FP inh 0, PABP FP inh 6, MT1-MMP act inh 4 and MT1-MMP act inh RFP 3.
`Cc1cc(C(=O)COC(=O)C2=NNC(=O)CC2)c(C)n1-c1ccc(OC(F)F)cc1` gave Yeast UUG start -11, CSC inhib -3, eIF4H FP inh 2, PABP FP inh -3, Rce1 inh inactive, MT1-MMP act inh 1 and MT1-MMP act inh RFP -1.
`COc1cc(NC(=O)C2CC(=O)N(CCc3ccc(F)cc3)C2)cc(OC)c1OC` (stereo not given) gave Yeast UUG start 0, CSC inhib -7, eIF4H FP inh -3, PABP FP inh 4, Rce1 inh inactive, MT1-MMP act inh 2, HIV Env fusion 0 and MT1-MMP act inh RFP 1.
For COc1cccc(CN2CCN(S(=O)(=O)c3ccccc3)CC2)c1OC the results were Yeast UUG start -18, CSC inhib -5, Rce1 inh inactive, MT1-MMP act inh -6, HIV Env fusion -3 and MT1-MMP act inh RFP -2.
Screening Cc1cccc(Cn2nnc3ccccc32)c1O returned Yeast UUG start -5, CSC inhib -9, Rce1 inh inactive, MT1-MMP act inh 7, HIV Env fusion 9 and MT1-MMP act inh RFP -4.
For O=C(Nc1ccccc1C(=O)NCC1CCCO1)c1ccc(Cl)cc1Cl (stereo not given) the results were Yeast UUG start -7, CSC inhib 5, eIF4H FP inh 4, PABP FP inh 8, Rce1 inh inactive, MT1-MMP act inh 1, HIV Env fusion -12 and MT1-MMP act inh RFP 5.
For O=C(COC(=O)c1ccc(N2CCCC2=O)cc1)c1ccccc1 the results were Yeast UUG start -23, CSC inhib -14, eIF4H FP inh 0, PABP FP inh -8, Rce1 inh inactive, MT1-MMP act inh -2, HIV Env fusion -25 and MT1-MMP act inh RFP -1.
`COc1ccc(OC)c(-n2c(=S)[nH]c3c(sc(=S)n3-c3ccccc3)c2=O)c1` gave CSC inhib -10, eIF4H FP inh 4, PABP FP inh 6, Rce1 inh inactive, MT1-MMP act inh -1, HIV Env fusion -27 and MT1-MMP act inh RFP -3.
For COc1cc2c(cc1OC)C(COc1ccc(F)cc1)N(C(=O)c1ccco1)CC2 (stereo not given) the results were Yeast UUG start 11, CSC inhib -3, eIF4H FP inh -3, PABP FP inh -3, Rce1 inh inactive, MT1-MMP act inh -1, HIV Env fusion -10 and MT1-MMP act inh RFP -1.
Screening O=C(Nc1ccccc1)N1CCN(Cc2ccc3c(c2)OCO3)CC1 returned Yeast UUG start -24, CSC inhib -7, eIF4H FP inh 35, PABP FP inh 0, Rce1 inh inactive, MT1-MMP act inh 1, HIV Env fusion -12 and MT1-MMP act inh RFP 5.
Screening O=C1OCCN1C(=O)[C@H]1[C@H](c2ccc(Cl)cc2)C(c2ccc(F)cc2)=NN1c1ccc(Br)cc1 returned Yeast UUG start 3, MT1-MMP act inh 1, HIV Env fusion -182 and MT1-MMP act inh RFP -4.
CCc1nc2nc(C)c(NS(=O)(=O)c3ccc(C)c(C)c3)c(=O)n2[nH]1 was read as Yeast UUG start 1, CSC inhib 1, eIF4H FP inh 12, PABP FP inh 32, MT1-MMP act inh 5, HIV Env fusion -3 and MT1-MMP act inh RFP 4.
Screening CC(Oc1ncnc2ccccc12)C(=O)Nc1cccc(S(=O)(=O)N2CCOCC2)c1 (stereo not given) returned Yeast UUG start 12, CSC inhib -7, eIF4H FP inh -5, PABP FP inh 12, Rce1 inh inactive, MT1-MMP act inh -4 and MT1-MMP act inh RFP 0.
Screening CCC(=O)Nc1ccc(S(=O)(=O)Nc2cccc(C)c2)cc1OC returned Yeast UUG start -2, CSC inhib 28, eIF4H FP inh -6, PABP FP inh -4, Rce1 inh inactive, MT1-MMP act inh 5, HIV Env fusion -94 and MT1-MMP act inh RFP 4.
COc1ccc(/C(O)=C2\C(=O)C(=O)N(CCN(C)C)C2c2cc(OC)c(OC)c(OC)c2)c(C)c1 (stereo not given) was read as Yeast UUG start 10, CSC inhib -4, eIF4H FP inh -9, PABP FP inh -3, Rce1 inh inactive, MT1-MMP act inh 0 and MT1-MMP act inh RFP 1.
Screening Fc1cccc(-n2c(-c3ccco3)nc3nc4ccccc4nc32)c1 returned Yeast UUG start 9, eIF4H FP inh 57, PABP FP inh 27*, Rce1 inh inactive, MT1-MMP act inh -7, eIF4H FP inh retest 28, PABP FP inh retest 81* and MT1-MMP act inh RFP 6.
Screening Cc1ccoc1C(=O)N1CCCCC1C(=O)O (stereo not given) returned CSC inhib 3, eIF4H FP inh -3, PABP FP inh 9, Rce1 inh inactive, MT1-MMP act inh 3, HIV Env fusion 25 and MT1-MMP act inh RFP 9.
`CCN(C(=O)COC(=O)c1ccc(OC)c(S(=O)(=O)N2CCCc3ccccc32)c1)C1CCS(=O)(=O)C1` (stereo not given) gave Yeast UUG start -1, CSC inhib -9, eIF4H FP inh 4, PABP FP inh 0, Rce1 inh inactive, MT1-MMP act inh -1, HIV Env fusion -3 and MT1-MMP act inh RFP 1.
`COc1ccc(CCNC(=O)CSc2nc(O)c(C(C)C)c(=O)[nH]2)cc1OC` gave Yeast UUG start -9, CSC inhib -14, eIF4H FP inh -2, PABP FP inh -1, Rce1 inh inactive, MT1-MMP act inh -3, HIV Env fusion -36 and MT1-MMP act inh RFP -2.
`COc1ccc(-c2cc(C)no2)cc1S(=O)(=O)NCCCN1CCCCCC1` gave Yeast UUG start 3, CSC inhib 0, eIF4H FP inh 0, PABP FP inh 14, Rce1 inh inactive, MT1-MMP act inh 2, HIV Env fusion -4 and MT1-MMP act inh RFP 3.
Screening C=CCn1c(=O)c(C(=O)NCc2ccccc2)c(O)c2ccccc21 returned Yeast UUG start -6, CSC inhib 58, eIF4H FP inh 5, PABP FP inh -8, Rce1 inh inactive, MT1-MMP act inh 3, HIV Env fusion 7 and MT1-MMP act inh RFP -3.
Screening O=S(=O)(Oc1ccc(C(=S)N2CCOCC2)cc1)c1ccc(Cl)cc1 returned Yeast UUG start -7, CSC inhib -11, eIF4H FP inh -8, PABP FP inh -5, Rce1 inh inactive, MT1-MMP act inh 2, HIV Env fusion 5 and MT1-MMP act inh RFP -9.
`O=C(Cn1cnc2c(OCc3ccccc3)ncnc21)NCc1ccc2[nH]ccc2c1` gave Yeast UUG start -12, MT1-MMP act inh 4, HIV Env fusion 2 and MT1-MMP act inh RFP 0.
Screening COc1ccc(NC(=O)Cn2c(=O)sc3ccccc32)cc1 returned Yeast UUG start -18, CSC inhib -12, eIF4H FP inh -10, PABP FP inh -6, Rce1 inh inactive, MT1-MMP act inh 9 and MT1-MMP act inh RFP 2.
Screening COc1ccc(C(=O)NCCSc2ccccc2)cc1OC returned CSC inhib -9, eIF4H FP inh -3, PABP FP inh 8, Rce1 inh inactive, MT1-MMP act inh 3, HIV Env fusion -13 and MT1-MMP act inh RFP 2.
`CC1CN=C(c2ccccc2)O1` (stereo not given) gave Yeast UUG start 10, MT1-MMP act inh 4, HIV Env fusion 6 and MT1-MMP act inh RFP 4.
Screening CCOC(=O)CSc1nnc(CNC(=O)c2ccc(OC)cc2)n1C1CCCCC1 returned CSC inhib 5, eIF4H FP inh -8, PABP FP inh 3, Rce1 inh inactive, MT1-MMP act inh 3, HIV Env fusion -29 and MT1-MMP act inh RFP 4.
Cc1cc(/C=C2/NC(=O)NC2=O)c(C)n1-c1ccncc1 was read as Yeast UUG start -19, CSC inhib -23, eIF4H FP inh 33, PABP FP inh 23, Rce1 inh inactive, MT1-MMP act inh -4, HIV Env fusion -20 and MT1-MMP act inh RFP -1.
CC(C)OC(=O)Nc1ccc(-c2ccc(NC(=O)OC(C)C)cc2Cl)c(Cl)c1 was read as Yeast UUG start -13, CSC inhib 13, eIF4H FP inh 6, PABP FP inh 2, Rce1 inh inactive, MT1-MMP act inh -13, HIV Env fusion 0 and MT1-MMP act inh RFP 2.
CCCN(CCO)CCCc1ccccc1 was read as Yeast UUG start 5, CSC inhib -8, eIF4H FP inh 15, PABP FP inh 2, Rce1 inh inactive, MT1-MMP act inh -1 and MT1-MMP act inh RFP 4.
O=C(CSc1ccc2nnc(-c3ccccn3)n2n1)Nc1ccc2c(c1)OCCO2 was read as Yeast UUG start -16, CSC inhib -5, eIF4H FP inh -4, PABP FP inh -3, Rce1 inh inactive, MT1-MMP act inh 0, HIV Env fusion 5 and MT1-MMP act inh RFP 7.
COCCn1c(C)cc(C(=O)CSc2nc3ccccc3o2)c1C was read as Yeast UUG start -32, CSC inhib -9, eIF4H FP inh 19, PABP FP inh 17, Rce1 inh inactive, MT1-MMP act inh 0, HIV Env fusion -9 and MT1-MMP act inh RFP -9.
Screening COCCCNC(=O)/C=C/c1ccc(Cl)cc1Cl returned Yeast UUG start -13, CSC inhib -6, eIF4H FP inh -2, PABP FP inh -2, Rce1 inh inactive, MT1-MMP act inh 2, HIV Env fusion -40 and MT1-MMP act inh RFP 1.
Screening CCN1C[C@@H]2[C@@H]3C(=O)N(C)C(=O)[C@@H]3[C@](CC)(C(=O)OC)N2C1=NCc1ccccc1 returned Yeast UUG start -1, MT1-MMP act inh -3, HIV Env fusion 30 and MT1-MMP act inh RFP 0.
`CN=C1SC(CC(=O)Nc2ccccc2F)C(=O)N1C` (stereo not given) gave Yeast UUG start -4, CSC inhib -4, eIF4H FP inh -8, PABP FP inh -1, Rce1 inh inactive, MT1-MMP act inh 2, HIV Env fusion 17 and MT1-MMP act inh RFP 3.

Some of these compounds in order of molar mass, smallest number first.
Screening COCCCNC(=O)/C=C/c1ccc(Cl)cc1Cl returned Yeast UUG start -13, CSC inhib -6, eIF4H FP inh -2, PABP FP inh -2, Rce1 inh inactive, MT1-MMP act inh 2, HIV Env fusion -40 and MT1-MMP act inh RFP 1.
Screening COc1ccc(NC(=O)Cn2c(=O)sc3ccccc32)cc1 returned Yeast UUG start -18, CSC inhib -12, eIF4H FP inh -10, PABP FP inh -6, Rce1 inh inactive, MT1-MMP act inh 9 and MT1-MMP act inh RFP 2.
`COc1ccc(-c2cc(C)no2)cc1S(=O)(=O)NCCCN1CCCCCC1` gave Yeast UUG start 3, CSC inhib 0, eIF4H FP inh 0, PABP FP inh 14, Rce1 inh inactive, MT1-MMP act inh 2, HIV Env fusion -4 and MT1-MMP act inh RFP 3.
Screening CCN1C[C@@H]2[C@@H]3C(=O)N(C)C(=O)[C@@H]3[C@](CC)(C(=O)OC)N2C1=NCc1ccccc1 returned Yeast UUG start -1, MT1-MMP act inh -3, HIV Env fusion 30 and MT1-MMP act inh RFP 0.
CC(C)OC(=O)Nc1ccc(-c2ccc(NC(=O)OC(C)C)cc2Cl)c(Cl)c1 was read as Yeast UUG start -13, CSC inhib 13, eIF4H FP inh 6, PABP FP inh 2, Rce1 inh inactive, MT1-MMP act inh -13, HIV Env fusion 0 and MT1-MMP act inh RFP 2.

Some of the compounds tested. The share of hits here may be higher or lower than overall.
